LASV entry inh – Lassa virus entry inhibition. Lassa virus pseudotype entry inhibition, cell reporter; control for the full effect not named in the record. hit rate 1.2% among 300,000. Potency, µM (top dose mostly 37.9 µM), without a hit: at the top dose activity change, negative = inhibition, usual class: inhibitors; active means well fitted inhibition curve with a large enough effect; inconclusive means small, poorly fitted or top-dose-only effect, or effect the other way; inactive means flat fitted curve, though single readings scatter; tested in HEK293 cells; further: on the % scale 0 is the no-effect control and ±100 the full control effect; nearly all actives have a fitted effect of over 50% in size; luciferase read-out
StopGo reporter – FMDV 2A StopGo reporter, luciferase signal; human cells with a luciferase reporter of 2A StopGo recoding; control for the full effect not named in the record; Potency, µM (series often up to 57.9 µM), inactives show top-dose signal change, negative = less light; hit rate 1.2% among 410,000; AID 1159524; active = well fitted falling curve with a large enough effect; inconclusive = small, poorly fitted or top-dose-only effect; inactive = no such curve, though single readings can be large or run the other way; tested in HEK293T cells; further: on the % scale 0 is the no-effect control and ±100 the full control effect; nearly all actives have a fitted effect of over 45% in size; luciferase light after 4 h
Cruzain Triton – blocks cruzain activity in presence of Triton detergent. AID 1478. Potency, µM, inactives show max response, negative = inhibition, hits mostly inhibitors. P25779. hit rate 0.43% among 200,000. purified cruzain, Z-FR-AMC fluorescence, 0.01% Triton; active means well fitted curve in the direction sought with a large enough effect; inconclusive means small, poorly fitted or top-dose-only effect, or another doubt; inactive means no such curve, though single readings can be large; an effect the other way counts as inactive or inconclusive;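 further: plate controls were neutral wells for no effect and buffer without enzyme for full effect; nearly all actives have a fitted effect of over 40% in size; top concentration of the series not given in the record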
Target sequence (P25779 123-467 limits assumed): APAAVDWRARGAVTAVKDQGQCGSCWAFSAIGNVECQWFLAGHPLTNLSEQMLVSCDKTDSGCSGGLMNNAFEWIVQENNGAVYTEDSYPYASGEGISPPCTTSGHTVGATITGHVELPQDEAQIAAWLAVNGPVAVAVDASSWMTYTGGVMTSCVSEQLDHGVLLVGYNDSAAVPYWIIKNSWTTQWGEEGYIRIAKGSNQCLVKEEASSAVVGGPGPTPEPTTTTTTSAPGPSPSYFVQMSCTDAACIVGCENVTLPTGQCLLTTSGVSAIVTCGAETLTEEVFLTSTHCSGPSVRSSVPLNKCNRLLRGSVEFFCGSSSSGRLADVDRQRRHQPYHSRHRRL
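Read-out: AMC fluorescence (360 nm excitation, 450 nm emission), four reads over 2 min, first-to-third difference used. Conditions: cruzain 1.5 nM, Z-FR-AMC 2 uM, pH 5.5 acetate, 5 mM DTT, 0.01% Triton X-100.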
SARS PLpro yeast – SARS-CoV PLP inhibition in yeast; S. cerevisiae expressing SARS-CoV PLpro, growth rescue; control for the full effect not named in the record; Potency, µM (series often up to 32.9 µM), without a hit: at the top dose activity, positive = growth rescue; hit rate 0.19% among 330,000; AID 485353; further: 0% is about no effect; nearly all actives have a fitted effect of over 55% in size; growth read by luminescence after 48 h
Cruzain noTriton – blocks cruzain activity in detergent-free assay; Potency, µM, for inactives: max response, negative = inhibition, most hits filed as inhibitors; purified cruzain, Z-FR-AMC fluorescence, no detergent; P25779; hit rate 2.3% among 200,000; active means well fitted curve in the direction sought with a large enough effect; inconclusive means small, poorly fitted or top-dose-only effect, or another doubt; inactive means no such curve, though single readings can be large; an effect the other way counts as inactive or inconclusive;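 further: plate controls were enzyme without inhibitor for no effect and buffer without enzyme for full effect; nearly all actives have a fitted effect of over 40% in size; top concentration of the series not given in the record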
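Detergent-free condition (0.00005% Triton X-100) in acetate buffer pH 5.5 with DTT. 1.5 nM enzyme and compound were pre-mixed 15 min, then 2 uM Z-FR-AMC substrate added; reaction progress from fluorescence change between first and third reads (60 s).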
Marburg entry inh – Marburg virus entry inhibition; hit rate 1.8% among 300,000; Marburg virus pseudotyped entry inhibition, cell reporter; control for the full effect not named in the record; about a third of the inactives were read at about 46 µM; Potency, µM (series often up to 37.8 µM), for the others: at the highest dose activity change, negative = inhibition, hits mostly inhibitors; active = well fitted inhibition curve with a large enough effect; inconclusive = small, poorly fitted or top-dose-only effect, or effect the other way; inactive = flat fitted curve, though single readings scatter; tested in HEK293 cells; about a fifth of its hits are not listed in these tables; further: on the % scale 0 is the no-effect control and ±100 the full control effect; luciferase read-out
NS1 inh – blocks influenza NS1 protein function; S. cerevisiae slowed by influenza A NS1, growth recovery by OD600; hit rate 0.4% among 270,000; Potency, µM (highest dose often 46.1 µM), for the others: at the top dose activity, positive = more growth; further: actives are rising curves; nearly all actives have a fitted effect of over 50% in size
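Read-out: OD600 growth recovery of NS1-expressing budding yeast. Cells grown overnight at 30C in -URA glucose medium, washed, resuspended and diluted 1:100 in 2% galactose assay medium, pH 6.0. Same strain lacking NS1 served as positive control.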
RE007 growth inh – less growth of the S. pombe RE007 Vpr strain; Potency, µM (titrated, usually from 92.2 µM), inactives show at the highest dose activity change, negative = less growth; S. pombe RE007 Vpr strain, BacTiter-Glo ATP luminescence, 24 h; control for the full effect not named in the record; hit rate 0.21% among 360,000; active = well fitted falling curve with a large enough effect; inconclusive = small, poorly fitted or top-dose-only effect; inactive = no such curve, though single readings can be large or run the other way;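 further: on the % scale 0 is the no-effect control and ±100 the full control effect; nearly all actives have a fitted effect of over 50% in size; the assay follows cell death caused by Vpr and the record does not say whether a fall means rescue or toxicity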
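Fission yeast strain RE007, carrying one chromosomally integrated HIV-1 vpr copy, was seeded at OD 0.01 in PMG+AL medium with 23 nL pinned compound. After 24 h at 30 °C and 99% humidity, viability was read by BacTiter-Glo luminescence.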
* hit, by the source's call; u = inconclusive; x = not tested or not shown; [ ] = dose if it differs, or a comment. Unless noted, the call rests on the fitted dose curve; in most records, active means well fitted rising curve with a large enough effect; inconclusive means small, poorly fitted or top-dose-only effect; inactive means no such curve, though single readings can be large or run the other way. Potency means the concentration at half of the fitted maximal effect. Rows were taken by chance. About 4.8% of those tested had a hit in this group.

Values in the order: LASV entry inh	StopGo reporter	Cruzain Triton	SARS PLpro yeast	Cruzain noTriton	Marburg entry inh	NS1 inh	RE007 growth inh
[1] CC(=O)Nc1ccc(C(=O)NNS(=O)(=O)c2ccc(C)cc2)cc1
  -24%	-1%	x	1%	x	-6%[46.1 µM]	-5%	31%
[2] O=Cc1c(NCc2ccccc2F)c2ccccc2[nH]c1=O
  23%	17%	x	-6%	x	8%	-17%	3%
[3] CCCNS(=O)(=O)c1ccc(CCC(=O)NCc2cccnc2)cc1
  7%	28%	1.6%	-5%	-3%	-9%	-8%	5%
[4] O=C1Nc2ccccc2C12OCCCCO2
  -8%	-11%	6.7%	-3%	-3%	20%[46.1 µM]	u	-11%
[5] Cc1ccc2c(c1)nnn2C1CCN(CC(=O)N2c3ccccc3CC2C)CC1 (stereo not given)
  -2%	u	6.8%	3%	-3%	1%	-20%	-12%
[6] Cc1c(C(=O)Nc2ccc(Cl)cc2)c2ccccn2c1CCc1ccncc1
  -21%	-11%	-3.7%	-58%	-7%	u	-31%	-5%
[7] O=C(O)CCc1ccc(-c2ccc(Br)cc2)n1CC(=O)O
  14%	11%	-0.1%	7%	-7%	u	0%	-7%
[8] CN(C)C(=O)c1ccc(NC(=O)c2ccccc2Sc2ccccc2C#N)cc1
  -7%	38%[activator]	-3.7%	13%	4%	13%	1%	2%
[9] CCOC(=O)N1CCN(C(=O)C(CC)n2nc(C)c3sc4ccccc4c3c2=O)CC1 (stereo not given)
  u	-15%	-1.8%	8%	u	3%	-14%	8%
[10] CCC(C(=O)N1CCN(c2ccccn2)CC1)n1nc(C)n2c(cc3occc32)c1=O (stereo not given)
  3%	u	9.5%	-2%	4%	1%	-5%	-1%
[11] O=C(Nc1ccccc1C(=O)Nc1ccncc1)c1cccc([N+](=O)[O-])c1
  -10%	-12%	x	3%	x	1%	-12%	0%
[12] COC(=O)c1cc(-c2c[nH]c3ccccc23)n[nH]1
  -4%	-13%	-6.4%	-12%	-20%	-17%	-51%	19%
[13] CCOc1cc(C(=O)Nc2cc3c(cc2N2CCCC2)n(C)c(=O)n3C)cc(OCC)c1OCC
  x	-13%	x	-1%	x	x	0%	9%
[14] CC1CCN(S(=O)(=O)c2ccc3[nH]cc(C(=O)NCCN4CCOCC4)c(=O)c3c2)CC1
  9%	3%	0.2%	1%	0%	25%	0%	3%
[15] CCn1cnc2c1c(=O)n(Cc1csc(-c3ccccc3)n1)c(=O)n2Cc1ccccc1
  u	-11%	-5.4%	-4%	-4%	u	21%	4%
[16] COc1ccc(N(CC(=O)Nc2cc(OC)cc(OC)c2)S(=O)(=O)c2c(C)noc2C)cc1
  -8%[46.1 µM]	u	-5.4%	x	4%	u	x	x
[17] COc1cc(C(=O)Nc2cc3c4c(c2)CC(=O)N4CCC3)cc(OC)c1OC
  15%	-7%	x	-4%	x	11%	x	-1%
[18] COc1cc(C(=O)Nc2ccc(NC(=O)c3ccc(C(C)(C)C)cc3)cc2)cc(OC)c1OC
  u	u	-6.8%	x	u	x	x	x
[19] O=C(Cc1ncc(C(F)(F)F)cc1Cl)Nc1ccc(F)cc1
  -15%	-6%	-3.4%	-2%	1%	-9%	-5%	15%
[20] O=[N+]([O-])c1ccc(Cl)c(S(=O)(=O)Nc2ccc(-c3ccc(N4CCCC4)nn3)cc2)c1
  7%	37%[activator]	x	-4%	x	9%	x	-5%
[21] CCC1(C)OCC(Cn2c3ccccc3c3ccccc32)O1 (stereo not given)
  x	x	-5.8%	-71%	-2%	x	-15%	x
[22] CCOC(=O)CCNC(=O)CNC(=O)OCc1ccccc1
  -2%	-8%	1.5%	8%	-5%	-1%[46.1 µM]	4%	-16%
[23] O=C(c1cc(COc2ccccc2)on1)N1CCCC(OCc2cccnc2)C1 (stereo not given)
  -2%	-20%	x	14%	x	3%	-13%	-14%
[24] CCOc1ccc(N(CC(=O)NCCc2ccccc2)C(=O)CCC(=O)Nc2cc(C)ccn2)cc1
  u	-6%	x	-2%	x	u	3%	0%
[25] O=C(NC(=S)Nc1ccc2c(c1)OCCO2)c1cccc(Br)c1
  3%	48%[activator]	-5.8%	-11%	-2%	u	25%	-6%
[26] CCN(CC)CCNC(=O)c1nn(-c2ccc(OC)c(Cl)c2)c(=O)c2c1c1ccccc1n2C
  4%[46.1 µM]	-21%	-0.4%	x	-2%	7%[46.1 µM]	x	x
[27] CC(NC(=S)NNS(=O)(=O)c1cccc([N+](=O)[O-])c1)c1ccccc1 (stereo not given)
  26%[46.1 µM]	-5%	x	2%	x	11%[46.1 µM]	-3%	8%
[28] CCOC(=O)c1c(NC(=O)CSc2nc3cccnc3n2C)sc(C(C)=O)c1C
  -10%	28µM*	-1.4%	-5%	u	10µM*	-5%	-3%
[29] CCOc1cc(S(=O)(=O)NCc2ccc3c(c2)OCO3)ccc1F
  4%	-1%	-1.7%	1%	6%	1%	4%	-17%
[30] Cc1cc(OCC(=O)NC(Cc2c[nH]c3ccccc23)C(=O)O)ccc1Cl (stereo not given)
  14%[46.1 µM]	34%[activator]	-12%	x	28%	-3%[46.1 µM]	x	x
[31] COc1ccc(C2=CC(c3cc(OC)c(OC)c(OC)c3)NC(=S)N2)cc1 (stereo not given)
  u	-6%	-4.3%	-5%	-3%	-26%	17%	-10%
[32] CC(=O)c1ccc(OCC(O)Cn2nnc3ccccc32)cc1 (stereo not given)
  17%	x	0.5%	4%	-5%	17%	-7%	5%
[33] Cc1ccc(C(=O)NC=C(Cl)Cl)cc1
  -24%	35%[activator]	2.4%	-7%	-26%	u	-9%	-20%
[34] COc1ccc(-c2noc(-c3ccc(Cl)cc3)n2)cc1
  u	25%	2.9%	1%	-16%	u	3%	11%
[35] COc1ccc(NS(=O)(=O)c2cc(NC(=O)[C@H](C)NC(N)=O)ccc2N2CCCC2)cc1
  -2%	29%	x	-5%	x	4%	x	6%
[36] CC(C)CNS(=O)(=O)c1ccc(S(=O)(=O)N2CCN(C3CCCC3)CC2)cc1
  -3%	-13%	x	0%	x	-27%[46.1 µM]	9%	-12%
[37] Cc1ccccc1NC(=O)COc1ccc(S(=O)(=O)N2CCCC2)cc1C
  2%	-22%	x	-1%	x	23%	0%	-5%
[38] Cc1cc(NC(=O)COC(=O)c2ccc(OC(F)(F)F)cc2)no1
  5%	-12%	x	-3%	x	u	x	7%
[39] CCOC(=O)c1c(-c2ccccc2)oc2ccc(NS(=O)(=O)c3ccccc3)cc12
  u	10%	-6.6%	x	-26%	-27%[46.1 µM]	x	x
[40] Cc1ccc(NC(=O)N2CCN(Cc3nc4ccc(C)cc4o3)CC2)c(Cl)c1
  -9%[46.1 µM]	-30%	-0.7%	x	21%	x	x	x
[41] CCOc1ccc(/C=C/C(=O)Nc2ccc3nc(N(CC)CC)cc(C)c3c2)cc1OC
  u	-22%	-17%	x	-7%	11µM*	x	x
[42] COc1ccc(S(=O)(=O)Nc2ccc(Cl)cn2)c(C)c1C
  -2%	82%[activator]	-4.5%	0%	-3%	3%	-38%	-1%
[43] CCOc1ccc(OCC)c(NS(=O)(=O)c2cc(-c3cnc(C)o3)ccc2OC)c1
  -10%[46.1 µM]	32%[activator]	-5.5%	x	u	x	x	x
[44] CN1C(=O)c2ccc(C(=O)Nc3nccs3)cc2C1=O
  -4%	15%	x	-1%	x	-8%	0%	-3%
[45] Cc1ccc(Nc2nc(N3CCOCC3)nc(N3CCOCC3)n2)cc1Cl
  x	-12%	x	1%	x	x	-6%	6%
[46] CC(=O)c1ccc(S(=O)(=O)N(C)CC(=O)N2CCCCCC2)cc1
  x	-16%	x	2%	x	x	6%	0%
[47] COc1ccc(-c2nsc(NC(=O)c3cccc(OC)c3)n2)cc1
  4%[46.1 µM]	0%	-7.3%	x	0%	-19%[46.1 µM]	x	x
[48] COc1ccc(S(=O)(=O)Nc2ccc(S(=O)(=O)N(C)C)cc2)cc1[N+](=O)[O-]
  0%	31%[activator]	-4.9%	19%	-26%	u	-3%	14%
[49] CCOC(=O)C1CCN(c2nc(C)nc3c2oc2ccccc23)CC1
  14%	u	-6.4%	-1%	6%	7%	-95%	1%
[50] CC(=O)C12OC1CC1C3CCC4=CC(=O)CCC4(C)C3CCC12C (stereo not given)
  x	u	x	-19%	x	x	1%	7%

Next structures
Values in the order: LASV entry inh	StopGo reporter	Cruzain Triton	SARS PLpro yeast	Cruzain noTriton	Marburg entry inh	NS1 inh	RE007 growth inh
[51] CC(C)=NOCC(=O)Nn1c(COc2c(C)cccc2C)nc2ccccc2c1=O
  -25%	7%	x	-2%	x	-1%[46.1 µM]	-5%	2%
[52] O=C1Cc2ccccc2C(c2c(Cl)cccc2Cl)N1 (stereo not given)
  -13%	-6%	x	1%	x	11%	5%	9%
[53] Cc1ccc(C)c(N2CCN(C(=O)c3ccc(NS(=O)(=O)c4c(C)noc4C)cc3)CC2)c1
  -10%	-4%	-3.9%	3%	u	-5%	-4%	5%
[54] CC(Sc1nncs1)C(=O)NC1CCCCC1C (stereo not given)
  11%[46.1 µM]	-7%	x	-2%	x	-30%[46.1 µM]	-3%	3%
[55] Cc1ccc(C2=NOC3(CC(=O)N(c4ccc(C)cc4)C3=O)C2)cc1 (stereo not given)
  -12%	25%	x	2%	x	2%	3%	0%
[56] CSc1ccccc1NC(=O)CN(C)C(=O)COc1ncnc2ccccc12
  5%	9%	x	0%	x	-7%	x	8%
[57] COc1ccc(Nc2ncnc3sc(C)cc23)cc1
  x	54%[activator]	x	-7%	x	x	-30%	-3%
[58] O=C(Cn1cncn1)N/N=C/c1ccncc1
  x	-5%	x	-2%	x	x	2%	4%
[59] O=[N+]([O-])c1cccnc1Oc1ccccc1F
  -8%	67%[activator]	x	0%	x	-2%[46.1 µM]	9%	17%
[60] CCOC(=O)C(C)N1C(=O)S/C(=C/c2cc(C)n(-c3ccccn3)c2C)C1=O (stereo not given)
  5%	-11%	-11%	-3%	28%	u	-6%	-11%

Screening results: PubChem BioAssay, National Center for Advancing Translational Sciences (NCATS)
